CCT chaperon mod: cytosolic chaperonin activity modulation. purified chaperonin ATPase assay, HTRF ADP detection, 30 min. activity change, % (concentration not given with the values), hits read low. hit rate 0.3% among 360,000. AID 651819; in the data active = activity change below about -30%; also: % is scaled to controls: 0 for no effect and ±100 for the full control effect
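TRiC at 40 or 20 nM final (batch-dependent) in 30 mM Tris pH 7.4, 100 mM KCl, 5 mM MgCl2, 1 mM DTT, with compound at single 76 uM and 10 uM ATP, 30 min at 37 deg C. ADP detected by HTRF Transcreener, 665/615 ratio.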
Mm-Cpn inhibitor: inhibitors of Methanococcus maripaludis chaperonin (MmCpn). hit rate 0.031% among 330,000. Potency, µM (series often up to 76.9 µM), for inactives: at the highest dose activity, negative = inhibition, hits mostly inhibitors. purified Mm-Cpn ATPase, ADP Transcreener TR-FRET; also: potency is read from the fitted curve at half-maximal effect; % is scaled to controls: 0 for no effect and ±100 for the full control effect; nearly all actives have a fitted effect of over 80% in size
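Purified archaeal chaperonin (25 nM final) was preincubated with compound for 10 min at 37°C, then ATP (10 uM final) was added for 30 min at 37°C in Tris pH 7.4/KCl/MgCl2/DTT buffer. ADP was quantified by HTRF Transcreener TR-FRET.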
pAkt inh: Akt phosphorylation inhibition; Neuro2A IGF-stimulated pAkt S473 HTRF, 20 min; stronger effect = lower value; activity change, % for hits at 50 µM; hit rate 0.32% among 360,000; in the data active = activity change below about -80%; also: % is scaled to controls: 0 for no effect and ±100 for the full control effect
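Neuro2A cells in DMEM with 0.5% FBS, overnight at 37 deg C, given compound at single 50 µM final, then IGF (6 nM final) for 20 min at 37 deg C. Lysed; phospho-Akt Ser473 by HTRF after 24 h, 665/615 ratio.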
PTHR1 agonist: activates the human parathyroid hormone receptor PTHR1; Q03431; HEK293 GP2 PTHR1 cells, GloSensor cAMP luminescence, 1 h; Potency, µM (series often up to 115 µM), without a hit: at the highest dose activation, most hits filed as activators; hit rate 0.075% among 410,000; AID 743266; also: potency is read from the fitted curve at half-maximal effect; nearly all actives have a fitted effect of over 55% in size; some results filed as inactive show a strong effect at the top dose; inactives centre near -15; many of its hits are not listed in these tables
Target sequence (Q03431 whole entry, looked up): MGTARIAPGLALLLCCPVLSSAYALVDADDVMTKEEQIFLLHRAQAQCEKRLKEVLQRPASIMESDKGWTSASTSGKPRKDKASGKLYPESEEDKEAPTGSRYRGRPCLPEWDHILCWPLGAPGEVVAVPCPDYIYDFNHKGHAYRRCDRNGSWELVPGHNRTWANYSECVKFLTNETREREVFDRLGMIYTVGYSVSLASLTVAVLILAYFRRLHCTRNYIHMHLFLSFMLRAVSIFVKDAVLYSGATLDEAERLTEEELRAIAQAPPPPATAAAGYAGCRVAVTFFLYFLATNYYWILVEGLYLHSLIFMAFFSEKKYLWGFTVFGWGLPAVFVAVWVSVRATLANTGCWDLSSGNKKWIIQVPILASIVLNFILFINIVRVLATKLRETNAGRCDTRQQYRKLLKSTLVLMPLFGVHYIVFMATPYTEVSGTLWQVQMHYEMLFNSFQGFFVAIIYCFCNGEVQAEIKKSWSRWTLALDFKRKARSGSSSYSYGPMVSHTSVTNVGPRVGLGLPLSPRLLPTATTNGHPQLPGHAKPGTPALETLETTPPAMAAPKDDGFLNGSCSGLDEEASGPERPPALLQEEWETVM
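HEK-293-derived GP2 cells expressing PTHR1 and a GloSensor cAMP reporter, 3,000/well, plated overnight, given luciferin plus IBMX (each 0.5 mM as added) for 1 h at 37 °C, then compound for 1 h at 37 °C. Luminescence was read after 15 min at room temperature.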
Numbers without * were called inactive; i = inactive; · = not tested or not shown; & = joins results of further samples; [ ] = another dose, or the depositor's remark. Unless noted, calls follow the shape of the dose curve; as a rule, active = well fitted curve in the direction sought with a large enough effect; inconclusive = small, poorly fitted or top-dose-only effect, or another doubt; inactive = no such curve, though single readings can be large; an effect the other way counts as inactive or inconclusive.

SMILES	CCT chaperon mod	Mm-Cpn inhibitor	pAkt inh	PTHR1 agonist
N[C@@H]1C[C@H]1c1ccccc1	-3.2	-1.0%	·	17.8%
C[C@@H]1COc2cc(N3CCN(C)CC3)ccc2S(=O)(=O)N1	0.3	·	i	-9.8%
CCCc1c(-c2ccccc2F)ncn1CCc1ccccc1OC	-1.9	·	i	-90.7%[inhibitor]
CCC1C2CC3C4N(C)c5ccccc5C45CC(C2C5O)N3[C@@H]1O (some centres not stated)	-0.6	-2.0%	i	i
CC[C@H](OC(C)=O)C(C[C@H](C)N(C)C)(c1ccccc1)c1ccccc1	-1.7	1.4%	i	i
c1ccc2c(c1)Sc1ccccc1N2CC1CN2CCC1CC2 (configuration not stated)	0.7	-1.8%	i	-5.6%
C[C@]12CC[C@H]3[C@@H](CCC4=CC(=O)CC[C@@]43C)[C@@H]1CC[C@@H]2O	-0.5&0.0	0.0%	i	-3.9%&-21.4%
CCCN1CCC[C@H](c2cccc(O)c2)C1	-2.3	1.6%	i	i

Entries shown so far that have sulfur, in the order listed:
SMILES	CCT chaperon mod	Mm-Cpn inhibitor	pAkt inh	PTHR1 agonist
C[C@@H]1COc2cc(N3CCN(C)CC3)ccc2S(=O)(=O)N1	0.3	·	i	-9.8%
c1ccc2c(c1)Sc1ccccc1N2CC1CN2CCC1CC2 (configuration not stated)	0.7	-1.8%	i	-5.6%

Reformatted with two lines to a compound: part of the list above.
The line under a structure holds: CCT chaperon mod | Mm-Cpn inhibitor | pAkt inh | PTHR1 agonist
- C[C@@H]1COc2cc(N3CCN(C)CC3)ccc2S(=O)(=O)N1
 : 0.3 | · | i | -9.8%
- CCCc1c(-c2ccccc2F)ncn1CCc1ccccc1OC
 : -1.9 | · | i | -90.7%[inhibitor]
- CCC1C2CC3C4N(C)c5ccccc5C45CC(C2C5O)N3[C@@H]1O (some centres not stated)
 : -0.6 | -2.0% | i | i
- CC[C@H](OC(C)=O)C(C[C@H](C)N(C)C)(c1ccccc1)c1ccccc1
 : -1.7 | 1.4% | i | i

Single entries from above.
CCC1C2CC3C4N(C)c5ccccc5C45CC(C2C5O)N3[C@@H]1O (some centres not stated) in Mm-Cpn inhibitor is entered as -2.0%
C[C@]12CC[C@H]3[C@@H](CCC4=CC(=O)CC[C@@]43C)[C@@H]1CC[C@@H]2O in PTHR1 agonist is entered as -3.9%&-21.4%

An excerpt (hit frequency here may not be typical).
